UUG fidelity – modulators of start codon recognition fidelity in yeast; S. cerevisiae UUG-firefly luciferase reporter, luminescence/redox ratio; actives 0.13% (n = 350,000); activity score, % at 18.7 µM;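 active = replicate mean at a twofold rise or more, about +100% in these data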;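 also: firefly luciferase made from a UUG start codon reports start codon fidelity; reporter light over untreated wells divided by growth signal over untreated wells; some hits fall short of that in this replicate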
Numbers without * were called inactive. Not all compounds are listed; count on the stated rates, not on these rows.

UUG fidelity	structure
-1	Cc1ccc(S(=O)(=O)Nc2ccc3c(c2)C(=O)N([C@H](C)CO)C[C@@H](C)[C@H](CN(C)C(=O)Nc2ccc(F)cc2)O3)cc1
-6	COCC(=O)Nc1ccc2c(c1)C(=O)N(C)[C@@H]1CC[C@@H](CC(=O)NCC(F)(F)F)O[C@@H]1CO2
11	COc1ccc(NC(=O)N(C)C[C@@H]2Oc3ccc(NC(=O)CCCN(C)C)cc3C(=O)N([C@@H](C)CO)C[C@H]2C)cc1
-41	OC[C@@H]1[C@H](c2ccc(Br)cc2)[C@H]2CN(Cc3ccccn3)CCCCN12
-8	C[C@@H]1CN([C@@H](C)CO)C(=O)c2cccc(NS(C)(=O)=O)c2O[C@H]1CN(C)S(=O)(=O)c1cn(C)cn1
10	Cc1ccc(S(=O)(=O)Nc2cccc3c2O[C@@H](CN(C)C(=O)NC(C)C)[C@H](C)CN([C@H](C)CO)C3=O)cc1
-3	O=C(C[C@@H]1CC[C@@H]2[C@H](COC[C@H](O)CN2C(=O)c2ccncc2)O1)NC1Cc2ccccc2C1
10	CO[C@H]1CN(C)C(=O)c2ccc(NC(=O)Nc3ccccc3)cc2OC[C@@H](C)N(C(=O)Nc2c(C)noc2C)C[C@@H]1C
-26	Cc1ccccc1S(=O)(=O)N1CC[C@@H]2[C@H](CO)Nc3ccc(-c4ccccc4F)cc3[C@@H]21
-6	C[C@H](CO)N1C[C@H](C)[C@H](CN(C)C(=O)Nc2ccc3c(c2)OCO3)Oc2c(NS(=O)(=O)c3cn(C)cn3)cccc2C1=O
8	CCCC#Cc1ccc([C@H]2[C@H](CO)N3CCCCN(C(=O)c4ccc5c(c4)OCO5)C[C@@H]23)cc1
13	O=C(c1ccncc1)N1CC[C@@H]2[C@@H](CO)Nc3ccc(C4=CCCCC4)cc3[C@@H]21
-4	COc1ccc(-c2ccc3c(c2)[C@H]2[C@H](CCN2Cc2cncnc2)[C@H](CO)N3)cc1
40	CN(C)C(=O)c1cccc(-c2ccc3c(c2)[C@@H]2[C@@H](CCN2C(=O)c2ccccc2)[C@H](CO)N3C)c1
-1	CCC(=O)N1C[C@H]2[C@@H](c3ccccc31)[C@@H](CO)N2Cc1ccccc1Cl
19	O=C(C[C@H]1CC[C@H]2[C@@H](COC[C@@H](O)CN2C(=O)Nc2ccc(Cl)cc2)O1)N1CCCCC1
14	CNC[C@@H]1Oc2ccc(NC(=O)Nc3cccc4ccccc34)cc2C(=O)N([C@H](C)CO)C[C@@H]1C
24	CCCNC(=O)C[C@H]1CC[C@@H]2[C@H](COC[C@H](O)CN2C(=O)Nc2ccccc2OC)O1
-11	C[C@H](CO)N1C[C@H](C)[C@H](CN(C)C(=O)Nc2ccccc2)Oc2ccc(NC(=O)Nc3cccc4ccccc34)cc2CC1=O
4	O=C(C[C@H]1CC[C@@H]2[C@H](COC[C@@H](O)CN2CC2CCCCC2)O1)NCC1CC1
12	CN(C[C@H]1[C@H](c2ccccc2)[C@@H](CO)N1CC1CC1)C(=O)c1ccccc1
13	CCCC#Cc1ccc([C@@H]2[C@H]3CN(C(=O)c4ccc5c(c4)OCO5)CCCCN3[C@H]2CO)cc1
-4	CC(=O)NC[C@@H]1[C@H](c2ccc(-c3cccnc3)cc2)[C@H](CO)N1C(=O)C1CC1
28	COc1ccc(S(=O)(=O)Nc2cccc3c2O[C@H](CN(C)C(=O)NC2CCCCC2)[C@H](C)CN([C@H](C)CO)C3=O)cc1
31	CO[C@@H]1CN(C)C(=O)c2cc(NC(=O)C3CCOCC3)ccc2OC[C@@H](C)N(C(=O)C2CCOCC2)C[C@H]1C
9	OC[C@@H]1[C@H](c2ccc(C3=CCCCC3)cc2)[C@@H]2CN(CCC(F)(F)F)CCCCN12
-3	COc1ccc(NC(=O)N(C)C[C@H]2Oc3c(NC(=O)c4cnccn4)cccc3C(=O)N([C@H](C)CO)C[C@H]2C)cc1
4	CCCNC(=O)Nc1ccc2c(c1)OC[C@@H](C)N(Cc1ccncc1)C[C@@H](C)[C@@H](OC)CN(C)C2=O
-4	C[C@H](CO)N1C[C@H](C)[C@H](CN(C)C(=O)Nc2ccc(C(F)(F)F)cc2)Oc2ccc(NC(=O)C3CC3)cc2C1=O
-4	C/C=C/c1ccc([C@@H]2[C@@H](CO)N(C(=O)NCCC)[C@H]2CN(C)C(=O)CC)cc1
-4	CN1c2ccc(-c3cccc(C#N)c3)cc2[C@H]2[C@H](CCN2C(=O)Nc2cc(F)ccc2F)[C@H]1CO
3	C[C@H]1CN([C@@H](C)CO)C(=O)Cc2cc(NC(=O)C3CC3)ccc2O[C@@H]1CN(C)S(=O)(=O)c1ccc(Cl)cc1
4	O=C(C1CCCC1)N1C[C@H]2[C@@H](c3ccccc31)[C@@H](CO)N2C(=O)c1cccnc1
1	O=C(c1cccc(F)c1)N1CC[C@@H]2[C@@H](CO)Nc3ccc(-c4ccc(F)cc4)cc3[C@@H]21
-17	C[C@H]1CN([C@@H](C)CO)C(=O)c2cc(NS(=O)(=O)c3cccs3)ccc2O[C@H]1CN(C)C
-7	CCN1[C@@H]2c3ccc(-c4ccc(C(=O)N(C)C)cc4)c(=O)n3C[C@@H]2[C@@H](CO)[C@@H]1C(=O)NCCOC
-8	C[C@H]1CN([C@@H](C)CO)C(=O)Cc2cc(NC(=O)Nc3ccccc3)ccc2O[C@H]1CN(C)C(=O)NC1CCCCC1
-4	CO[C@@H]1CN(C)C(=O)c2ccc(NC(=O)C3CC3)cc2OC[C@@H](C)NC[C@@H]1C
-7	C[C@H](CO)N1C[C@H](C)[C@@H](CN(C)S(C)(=O)=O)Oc2c(NC(=O)c3cnccn3)cccc2C1=O
11	C[C@@H]1CN([C@@H](C)CO)C(=O)CCCn2nncc2CO[C@H]1CN(C)Cc1ccc2c(c1)OCCN2C

11 compounds from above, arranged by SMILES length, largest number first.
UUG fidelity	structure
3	C[C@H]1CN([C@@H](C)CO)C(=O)Cc2cc(NC(=O)C3CC3)ccc2O[C@@H]1CN(C)S(=O)(=O)c1ccc(Cl)cc1
-7	CCN1[C@@H]2c3ccc(-c4ccc(C(=O)N(C)C)cc4)c(=O)n3C[C@@H]2[C@@H](CO)[C@@H]1C(=O)NCCOC
-3	COc1ccc(NC(=O)N(C)C[C@H]2Oc3c(NC(=O)c4cnccn4)cccc3C(=O)N([C@H](C)CO)C[C@H]2C)cc1
-8	C[C@H]1CN([C@@H](C)CO)C(=O)Cc2cc(NC(=O)Nc3ccccc3)ccc2O[C@H]1CN(C)C(=O)NC1CCCCC1
-7	C[C@H](CO)N1C[C@H](C)[C@@H](CN(C)S(C)(=O)=O)Oc2c(NC(=O)c3cnccn3)cccc2C1=O
-4	CN1c2ccc(-c3cccc(C#N)c3)cc2[C@H]2[C@H](CCN2C(=O)Nc2cc(F)ccc2F)[C@H]1CO
11	C[C@@H]1CN([C@@H](C)CO)C(=O)CCCn2nncc2CO[C@H]1CN(C)Cc1ccc2c(c1)OCCN2C
1	O=C(c1cccc(F)c1)N1CC[C@@H]2[C@@H](CO)Nc3ccc(-c4ccc(F)cc4)cc3[C@@H]21
-17	C[C@H]1CN([C@@H](C)CO)C(=O)c2cc(NS(=O)(=O)c3cccs3)ccc2O[C@H]1CN(C)C
-4	C/C=C/c1ccc([C@@H]2[C@@H](CO)N(C(=O)NCCC)[C@H]2CN(C)C(=O)CC)cc1
-4	CO[C@@H]1CN(C)C(=O)c2ccc(NC(=O)C3CC3)cc2OC[C@@H](C)NC[C@@H]1C

Next section.
UUG fidelity	structure
0	CCC(=O)N1[C@@H]2CN(S(=O)(=O)c3ccc(F)cc3)c3ccccc3[C@@H]2[C@@H]1CO
3	Cc1ccccc1S(=O)(=O)N1CCCCN2[C@@H](CO)[C@@H](c3ccc(-c4cccc(F)c4)cc3)[C@@H]2C1
5	C[C@@H]1CN([C@@H](C)CO)C(=O)c2cccc(NC(=O)C3CCOCC3)c2O[C@@H]1CN(C)S(=O)(=O)c1cccs1
-2	CC(=O)NC[C@@H]1[C@@H](c2ccc(C3=CCCCC3)cc2)[C@H](CO)N1C(=O)NC(C)C
-4	O=C(NCC1CCCCC1)[C@H]1N[C@H]2c3ccc(C4=CCCC4)c(=O)n3C[C@H]2[C@@H]1CO
19	COc1ccc(CN(C)C[C@H]2Oc3ccc(NC(=O)NC4CCCCC4)cc3C(=O)N([C@H](C)CO)C[C@H]2C)cc1
-9	COC(=O)C[C@@H]1CC[C@@H]2[C@@H](COc3ccc(NC(=O)C4CCOCC4)cc3C(=O)N2C)O1
1	COCC(=O)Nc1ccc2c(c1)OC[C@H](C)N(C(=O)COC)C[C@H](C)[C@H](OC)CN(C)C2=O
6	COc1ccc(S(=O)(=O)N(C)C[C@@H]2OCc3ccccc3-c3c(n(C)c4ccccc34)C(=O)N([C@H](C)CO)C[C@H]2C)cc1
11	Cn1cnc(S(=O)(=O)N2CCCCN3[C@@H](CO)[C@@H](c4ccc(C#CC5CC5)cc4)[C@@H]3C2)c1
0	O=C(Nc1ccc(F)cc1)N1CCCCN2[C@@H](CO)[C@@H](c3ccc(C#Cc4ccccc4)cc3)[C@@H]2C1
8	CN(C)C(=O)c1ccc(-c2ccc3c(c2)[C@H]2[C@H](CCN2C(=O)C2CCC2)[C@H](CO)N3C)cc1
22	Cc1noc(C)c1NC(=O)N(C)C[C@@H]1Oc2c(NC(=O)c3ccc(-c4nccs4)cc3)cccc2C(=O)N([C@H](C)CO)C[C@@H]1C
-9	O=C(C[C@H]1CC[C@H]2[C@@H](COC[C@@H](O)CN2C(=O)C2CCCC2)O1)NCc1ccncc1
-9	C[C@@H]1CN([C@H](C)CO)C(=O)c2cc(NC(=O)NC3CCCCC3)ccc2O[C@H]1CN(C)S(=O)(=O)c1ccc(Cl)cc1
13	O=C(NC1CCC1)[C@H]1[C@H](CO)[C@H]2Cn3c(ccc(-c4ccncc4)c3=O)[C@H]2N1CC1CC1
-9	CCC(=O)N1[C@H](CO)[C@@H]2c3ccccc3N(C(=O)c3cnccn3)C[C@@H]21
13	C[C@H](CO)N1C[C@H](C)[C@H](CN(C)S(C)(=O)=O)Oc2ccc(NC(=O)Nc3cccc4ccccc34)cc2C1=O
-1	CO[C@H]1CN(C)C(=O)c2cc(NC(=O)NC3CCCCC3)ccc2OC[C@H](C)N(CC2CC2)C[C@@H]1C
-12	O=C(C[C@@H]1CC[C@H]2[C@@H](COC[C@@H](O)CN2C(=O)Nc2ccc(C(F)(F)F)cc2)O1)NCCc1ccncc1
3	COc1ccc(S(=O)(=O)N(C)C[C@@H]2Oc3ccc(NC(=O)NC4CCCCC4)cc3C(=O)N([C@@H](C)CO)C[C@H]2C)cc1
7	C[C@H](CO)N1C[C@H](C)[C@H](CN(C)S(C)(=O)=O)Oc2c(NS(=O)(=O)c3ccccc3)cccc2C1=O
1	CCNC(=O)C[C@H]1CC[C@@H]2[C@H](COC[C@@H](O)CN2C(=O)Nc2ccc(Cl)c(Cl)c2)O1
-4	C[C@@H]1CN([C@@H](C)CO)C(=O)Cc2cc(NC(=O)Nc3ccc4c(c3)OCO4)ccc2O[C@@H]1CN(C)C
-13	C[C@@H]1CN([C@@H](C)CO)C(=O)c2cc(NS(=O)(=O)c3cccs3)ccc2O[C@@H]1CN(C)C
19	Cc1ccc(S(=O)(=O)Nc2ccc3c(c2)C(=O)N([C@H](C)CO)C[C@@H](C)[C@@H](CN(C)C(=O)NC2CCCCC2)O3)cc1
-15	C[C@@H]1CN([C@@H](C)CO)C(=O)Cc2cc(NC(=O)c3ccncc3)ccc2O[C@H]1CN(C)C
-13	C[C@@H]1CN([C@H](C)CO)C(=O)c2cc(NC(=O)C3CC3)ccc2O[C@H]1CN(C)S(=O)(=O)c1cn(C)cn1
3	C/C=C/c1ccc([C@H]2[C@@H](CO)N(C(=O)C3CCC3)[C@H]2CNC(=O)NC(C)C)cc1
21	O=C([C@@H]1[C@@H](CO)[C@@H]2Cn3c(cccc3=O)[C@H]1N2CC1CCCC1)N1CCc2ccccc2C1
35	COCCNC(=O)C[C@H]1CC[C@@H]2[C@H](COc3ccc(NC(=O)C4CCOCC4)cc3C(=O)N2C)O1
11	O=C(c1ccccn1)N1C[C@H]2[C@@H](c3ccccc31)[C@@H](CO)N2C(=O)Nc1ccccc1Cl
5	COc1ccc(CN(C)C[C@H]2Oc3ccc(NS(=O)(=O)c4ccc(F)cc4)cc3CC(=O)N([C@@H](C)CO)C[C@@H]2C)cc1
-5	O=C(C[C@H]1CC[C@H]2[C@@H](COC[C@H](O)CN2Cc2ccc(F)cc2)O1)NCc1ccccc1Cl
-5	CCCN1C[C@@H](C)[C@@H](OC)CN(C)C(=O)c2cc(NS(=O)(=O)c3cn(C)cn3)ccc2OC[C@@H]1C
15	CC(=O)N1CC[C@@H]2[C@@H](CO)N(C)c3ccc(-c4cccc(F)c4)cc3[C@@H]21
-8	O=C(C[C@@H]1CC[C@H]2[C@@H](COC[C@@H](O)CN2C(=O)c2ccccc2)O1)NC1Cc2ccccc2C1
-8	Cc1cc(C(=O)Nc2cccc3c2O[C@@H](CN(C)C(=O)Nc2ccc(F)cc2)[C@H](C)CN([C@H](C)CO)C3=O)n(C)n1
-2	O=C(c1ccccn1)N1C[C@H]2[C@@H](c3ccccc31)[C@H](CO)N2C(=O)C1CCCC1
6	CO[C@H]1CN(C)C(=O)c2cc(NC(=O)C3CC3)ccc2OC[C@H](C)NC[C@@H]1C
4	Cc1ccc(S(=O)(=O)N2CC[C@H]3[C@H](CO)Nc4ccc(-c5cccc(C(=O)N(C)C)c5)cc4[C@H]32)cc1
-11	O=C(NC1CCCC1)N1CCCCN2[C@H](CO)[C@@H](c3ccc(-c4ccccc4)cc3)[C@H]2C1
-5	CO[C@H]1CN(C)C(=O)c2cc(NC(=O)C3CCCC3)ccc2OC[C@H](C)NC[C@@H]1C
6	CO[C@@H]1CN(C)C(=O)c2cc(NC(=O)c3ccccc3)ccc2OC[C@@H](C)N(C)C[C@@H]1C
9	C[C@H](CO)N1C[C@H](C)[C@H](CN(C)S(=O)(=O)c2cn(C)cn2)Oc2ccc(NC(=O)NC3CCCCC3)cc2C1=O
1	C[C@H](CO)N1C[C@H](C)[C@@H](CN(C)Cc2ccc(Cl)c(Cl)c2)Oc2ccc(NC(=O)CCN3CCOCC3)cc2CC1=O
-11	COCC(=O)N1[C@H](CO)[C@H]2c3ccccc3NC[C@H]21
-7	Cc1noc(C)c1NC(=O)N(C)C[C@H]1Oc2ccc(NC(=O)Cn3cnnn3)cc2C(=O)N([C@@H](C)CO)C[C@@H]1C

Source: PubChem (Broad Institute)
